Source: PubChem BioAssay (several laboratories)
Env fusion inh = HIV envelope-mediated fusion inhibition; 360,000 tested, 1.1% active; HeLa-JRFL Env/CEM21 cell fusion, luciferase; inhibition, % at 12.3 µM;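 active means mean replicate inhibition score of at least 50 and every replicate individually at or above 50; inconclusive means only one of the two criteria met; inactive means mean below 50 and not all replicates reaching 50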;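 further: 0% = plate neutral controls and 100% = maraviroc near 300 nM; one replicate is shown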
CSC inhib = cancer stem cell inhibition | AID 2717 | inhibition, % at 7.5 µM | 300,000 tested, 1.1% active | cancer stem cell-like cells viability, luminescence;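 active means mean at 75% or more and at least half the replicates too; inconclusive means mean and replicates disagree; tested in HMLE shEcad cells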;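 further: 0% = median of negative and 100% = median of positive control wells; the first replicate is given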
Rce1 inh = inhibitors of yeast Ras-converting enzyme. Q03530. yeast membranes, quenched prenylated peptide cleavage fluorescence. calls only. 290,000 tested, 0.27% active. AID 2563;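 active means fall in fluorescence gain of 50% or more versus controls, with final raw signal at or below 3038400; inconclusive means same 50% fall but final raw signal above 3038400; inactive means fall in fluorescence gain under 50%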;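 further: plate controls were neutral control wells for no effect and wells lacking membranes for full effect; tested at 10 µM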
Target sequence (Q03530 whole entry, looked up): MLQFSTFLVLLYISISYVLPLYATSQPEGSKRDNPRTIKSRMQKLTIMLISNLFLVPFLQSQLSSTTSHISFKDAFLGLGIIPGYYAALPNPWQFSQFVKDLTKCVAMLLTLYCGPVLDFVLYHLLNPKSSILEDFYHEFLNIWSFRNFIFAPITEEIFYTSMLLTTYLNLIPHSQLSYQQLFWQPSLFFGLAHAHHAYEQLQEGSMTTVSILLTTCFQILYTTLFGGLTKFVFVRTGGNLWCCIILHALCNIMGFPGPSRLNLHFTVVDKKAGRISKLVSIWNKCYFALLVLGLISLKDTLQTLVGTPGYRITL
PABP FP inh = PABP-poly(A) binding inhibition. PABP-poly(A) RNA binding, fluorescence polarization. inhibition, % at 35 µM. P11940. 290,000 tested, 1% active;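 active means 50% or more with normal probe brightness, or confirmed in later tests; inconclusive means above 50% with abnormal brightness, or retests that disagree; inactive means below 50% or failed in later tests; about a fifth of its hits are not listed in these tables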;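 further: calls also rest on retests at 20 µM and on dose response follow-up; controls were probe without protein and protein plus probe with vehicle; some compounds called inactive have numbers as strong as hits; many hits fall short of the cut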
eIF4H FP inh = inhibitors of RNA binding by human eIF4H; Q15056; eIF4H fluorescence polarization binding assay; inhibition, % at 35 µM; 290,000 tested, 0.94% active;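 active means 50% or more with normal probe brightness, or confirmed in later tests; inconclusive means above 50% with abnormal brightness, or retests that disagree; inactive means below 50% or failed in later tests; about a fifth of its hits are not listed in these tables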;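 further: calls also rest on retests at 20 µM and on dose response follow-up; 0% = protein and probe with vehicle and 100% = probe without protein; strong numbers were not always called active; many hits fall short of the cut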
UUG fidelity = alters start codon recognition fidelity in yeast. S. cerevisiae UUG-firefly luciferase reporter, luminescence/redox ratio. activity score, % at 18.7 µM. 350,000 tested, 0.13% active. AID 602363;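 active means replicate mean at a twofold rise or more, about +100% in these data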;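 further: firefly luciferase made from a UUG start codon reports start codon fidelity; reporter light over untreated wells divided by growth signal over untreated wells; some hits fall short of that in this replicate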
MT1-MMP act inh = blocks activation of human MT1-MMP. 360,000 tested, 0.061% active. HT1080 RFP-PRO-GFP cells, GFP/RFP ratio fluorescence, overnight; percent of plate control window, DMSO zero. P50281. GFP/RFP ratio change, % at 20 µM;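 active means GFP/RFP ratio change of at least 30% with cell ATP level not reduced by more than half and red fluorescence within 50% of control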; further: strong numbers were not always called active
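Read-out: GFP/RFP fluorescence ratio; Test system: RFP-PRO-GFP reporter HT1080 cells; Compound dosing: single-point 20 µM compound, 1% DMSO; Times: overnight compound exposure at 37 °C.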
eIF4H FP inh retest = also measured in eIF4H FP inh; calls as there; inhibition, %; compound at 20 µM; confirmation average;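 mean of two retest wells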
PABP FP inh retest = further read-out of PABP FP inh, marked with its call; inhibition, %; compound at 20 µM; confirmation repeats;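 mean of two retest wells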
MT1-MMP act inh RFP = further read-out of MT1-MMP act inh, marked with its call; RFP signal change, %; measured here: RFP expression control read;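 0 = vehicle wells; hits needed this value within 50% of zero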
An asterisk follows results filed as active; i = inactive; ? = inconclusive; . = no result given.

SMILES | Env fusion inh | CSC inhib | Rce1 inh | PABP FP inh | eIF4H FP inh | UUG fidelity | MT1-MMP act inh | MT1-MMP act inh RFP | others
CCc1ccc(/C=N/NC(=O)C(=O)NCCCN2CCOCC2)cc1 | . | 4 | i | 5 | 5 | -11 | 1 | 0
Cc1cc(C)nc(SCC(=O)c2ccc(F)c(C)c2)n1 | ? | 4 | . | -1 | -5 | -6 | 3 | -2
CCc1nn(C(C)C(=O)NC(C)CCc2ccco2)c(=O)c2cc3occc3n12 (stereo unspecified) | . | 2 | i | 19 | 2 | 4 | 7 | -2
O=[N+]([O-])c1ccc(/C=N/Nc2nc(N3CCCCCC3)nc(N3CCCCCC3)n2)o1 | -4 | 35 | i | 11 | 57 | -12 | 3 | 2 | eIF4H FP inh retest=-5;PABP FP inh retest=0
C=CCn1c(COc2ccc(F)cc2)nnc1SCC(=O)c1c[nH]c2c(CC)cccc12 | 29 | -18 | i | -3 | -5 | -9 | 3 | -5
O=S(=O)(c1ccccc1)N1CCC(c2ccccc2)CC1 | 2 | 0 | i | . | . | -24 | 0 | 1
Cc1ccc(S(=O)(=O)N(C)C)cc1NC(=O)COc1ccccc1C(=O)Nc1ccccc1 | 74* | -1 | i | . | . | -7 | 0 | -2
CCCC(=O)NC(NC1CCS(=O)(=O)C1)C(Cl)(Cl)Cl (stereo unspecified) | 21 | -6 | i | -5 | -2 | . | 1 | 1
Cc1noc(C)c1COc1ccc(C(=O)OCC(=O)Nc2ccc(S(N)(=O)=O)cc2)cc1 | -23 | . | . | . | . | 2 | 2 | 4
O=C(CN1CCCCCC1)Nc1ccc(Br)cn1 | -24 | -11 | i | 0 | 22 | -21 | -5 | 0
COc1ccccc1OCCC(=O)OCC(=O)Nc1ncc(Cl)cc1Cl | . | 2 | i | 13 | 7 | -6 | 0 | 6
c1ccc(-n2nnnc2Oc2ccc(-c3nnco3)cc2)cc1 | -76 | -12 | i | . | . | -39 | 3 | 1
Cc1ccccc1C(=O)NC(=S)NCC1CCCO1 (stereo unspecified) | . | 4 | i | -2 | -14 | -23 | 1 | 1
O=C(Nc1nnc(SCC(=O)N2CCCc3ccccc32)s1)c1ccccc1 | -22 | -12 | i | 2 | -7 | . | 1 | 2
CC(OC(=O)CCc1nc2ccccc2c(=O)[nH]1)C(=O)Nc1ccc2c(c1)OCO2 (stereo unspecified) | -6 | -9 | . | -2 | -3 | -10 | -1 | 4
CCN(CC)C(=O)/C(=C/c1cn(S(=O)(=O)N(C)C)c2ccccc12)NC(=O)c1ccc(OC)cc1 | 19 | 8 | i | -18 | -3 | . | 2 | -6
COC(=O)[C@H]1C[C@@H]1[C@H](NC(=O)c1cnccn1)c1ccccc1 | 2 | 8 | i | 2 | 3 | -6 | 2 | 5
COCC(=O)N1CCN(c2cccc(C(F)(F)F)c2)CC1 | 5 | -15 | i | 4 | 4 | . | 2 | 1
O=S(=O)(NCCOCC(F)(F)F)c1ccc2oc3ccccc3c2c1 | . | . | i | -9 | 6 | -20 | 1 | -10
CCOc1ccc(CCNC(=O)COC(=O)/C=C/c2ccccc2)cc1OCC | -36 | 0 | i | . | . | 3 | 6 | 3
COc1cc2nc(Cl)nc(N3CCN(C)CC3)c2cc1OC | . | -1 | i | -7 | -3 | . | . | .
COC(=O)c1ccc(COc2ccc(/C=C/C(=O)c3ccc(OC)c(CSCC(=O)O)c3)cc2OC)cc1 | -1 | 12 | i | 29 | 81* | -10 | 1 | -4 | eIF4H FP inh retest=69*;PABP FP inh retest=23
Cc1cc(=O)oc(C)c1C(=O)NCCC1=CCCCC1 | -23 | 3 | i | -7 | -10 | 1 | 8 | 5
COc1ccc(-c2csc(NCCc3nc4cc(Cl)c(Cl)cc4n3CCCO)n2)cc1 | ? | -6 | i | . | . | -12 | 4 | -8
Cc1sc2nc(SCC(=O)NCc3ccco3)n(Cc3ccccc3)c(=O)c2c1C | . | 10 | i | -3 | 6 | -12 | 0 | 1
O=C(NC1CCC(NC(=O)C2CCCO2)CC1)C1CCCO1 (stereo unspecified) | . | . | i | -4 | -4 | . | . | .
COc1ccc(CCC(=O)Nc2sc(C(=O)N(C)C)c(C)c2C#N)cc1 | . | . | i | -8 | 4 | -18 | -2 | -3
CCOC(=O)C1CCCN(C(=O)CCCn2c(=O)c3cccn3c3cccnc32)C1 (stereo unspecified) | 13 | -22 | i | 3 | 5 | -9 | -2 | 1
COc1ccc(N2CC(C(=O)Nc3ccccc3C(=O)NCc3ccco3)CC2=O)cc1 (stereo unspecified) | 14 | -5 | i | 8 | -5 | 15 | 8 | 7
Cc1cc(NC(=O)Cn2cnc3sc(C)c(C)c3c2=O)no1 | . | -5 | . | . | . | -17 | -1 | 9
COc1ccccc1COC(=O)c1cccc(S(=O)(=O)N2CCCC2)c1 | 1 | . | . | . | . | -17 | -2 | -8
Cc1cccc(C(=O)NCC(c2cccs2)N2CCOCC2)c1 (stereo unspecified) | 8 | 7 | i | . | . | -17 | 0 | 2
COc1cc2c(cc1OC)C(COc1ccc([N+](=O)[O-])cc1)N(C(C)=O)CC2 (stereo unspecified) | 35 | . | i | 1 | 6 | -13 | -2 | -28
O=S(=O)(/N=C(\Nc1ccc(F)cc1)C(F)(F)F)c1ccccc1 | -20 | . | i | 4 | 14 | -19 | 8 | 5
Cc1ccc(C(=O)Nc2ccc3ccccc3c2)cc1 | -161 | 21 | i | -8 | 6 | -46 | 1 | -3
Cc1ccc(C2=NN(CC(=O)NCc3cccs3)C(=O)CC2)cc1 | -18 | -14 | i | -1 | -1 | . | -12 | -1
COc1ccc2sc(-c3ccc(S(C)(=O)=O)cc3)c(C#CCO)c2c1 | -73 | 43 | . | . | . | 7 | 15 | -9
CCC/C(O)=C1\C(=O)CC(c2ccccc2)CC1=NCCc1c(C)[nH]c2ccccc12 (stereo unspecified) | 36 | 24 | i | 0 | -3 | -4 | -21 | -24
CC(C)(C)OC(=O)c1c(N)n(CCCN2CCCC2=O)c2nc3ccccc3nc12 | . | . | i | 3 | 1 | -17 | 2 | -3
Cc1cc(=O)[nH]c(SCc2cccc(Br)c2)n1 | . | -3 | i | 13 | -2 | -7 | 4 | 9
CC(C)C[C@H]1CNC(=S)N1C[C@H]1CCCN1C[C@H](Cc1ccc(O)cc1)N1C[C@H](Cc2ccc(O)cc2)N(CC2CCCCCC2)C1=S | 2 | . | . | . | . | -14 | -14 | -16
CNC(=O)c1[nH]nc2c1CCc1cc(OC)ccc1-2 | -24 | -1 | i | -8 | 0 | -12 | 5 | -8
N#CCSc1nc2cc(C(=O)N3CCCC3)ccc2c(=O)n1Cc1ccccc1 | . | . | i | 10 | -8 | -4 | -1 | 3
c1csc(Cc2nn3c(-c4n[nH]c5c4CCC5)nnc3s2)c1 | . | . | i | 15* | 56 | -19 | -2 | 2 | eIF4H FP inh retest=45;PABP FP inh retest=67*
CC1CCN(Cc2c(O)ccc3c2O/C(=C\c2ccco2)C3=O)CC1 | . | 2 | i | 3 | 87 | . | -39 | 5 | eIF4H FP inh retest=11;PABP FP inh retest=3
O=C(Nc1cccc(-c2cscn2)c1)C1CCN(Cc2ccc(CO)o2)CC1 | 4 | . | i | 3 | 2 | -4 | -1 | 1
Cc1cc(Nc2ccc(Cl)cc2)nc(N2CCOCC2)n1 | 26 | -12 | i | -4 | -1 | 3 | 0 | -2
O=C(c1ccc(F)cc1)N1CCCN(c2nc(-c3ccccc3)ns2)CC1 | 13 | -6 | i | 5 | -4 | 19 | 4 | 1
Cc1ccc(/C=C2\SC(=S)N(CCC(=O)NNC(=O)c3cccc(O)c3)C2=O)cc1 | -30 | 14 | i | -21 | 0 | -10 | -1 | -4
O=C(NCC1CCCN1S(=O)(=O)c1cccs1)C(=O)Nc1ccccc1 (stereo unspecified) | 2 | -7 | i | . | . | -6 | -3 | 1
COc1ccc(CN(C)C2CCN(C)CC2)cc1OC | 8 | 2 | . | -5 | 8 | -20 | 4 | 2
CCCCCCC(=O)N1CCC(c2nc3c(nnn3Cc3ccccc3Cl)c(=O)[nH]2)CC1 | -27 | 13 | i | -6 | 1 | 17 | 4 | -6
O=C(COc1ccc(F)cc1)NCCN1CCCC1 | 16 | -1 | i | 23 | 0 | -25 | 1 | 4
CC(C)c1ccc(CC(=O)N2CCC2(C)C(=O)Nc2cnc3ccccc3c2)cc1 (stereo unspecified) | 36 | . | . | . | . | -2 | -6 | -23
Cc1sc2ncnc(N3CCC(C(=O)Nc4ccc(OC(F)F)c(Cl)c4)CC3)c2c1C | 11 | 64 | . | . | . | -16 | 2 | -1
CSc1ccc(C(=O)C2CCCN(C(=O)c3ccc(C)nc3)C2)cc1 (stereo unspecified) | 8 | -5 | i | -3 | -4 | . | -2 | -3
Cc1c(Cl)c([N+](=O)[O-])nn1CC(=O)N1CCc2ccccc2C1 | . | 9 | i | -5 | -5 | -14 | 4 | 2
COc1ccc(NS(=O)(=O)c2cc3c(cc2C)NC(=O)CO3)c(OC)c1 | 11 | 14 | i | -1 | -6 | -2 | -1 | 4
CCCc1cc(SCC(=O)Nc2c(C)n(C)n(-c3ccccc3)c2=O)n2c(nc3ccccc32)c1C#N | -32 | ? | . | 44 | 10 | . | . | .
O=C(CSCCO)N1CCc2ccccc21 | -58 | -2 | i | -6 | -7 | 19 | -1 | -7
More entries follow:
SMILES | Env fusion inh | CSC inhib | Rce1 inh | PABP FP inh | eIF4H FP inh | UUG fidelity | MT1-MMP act inh | MT1-MMP act inh RFP | others
CCn1c(C)cc(O)cc1=O | -12 | -3 | i | 12 | 2 | . | 5 | 0
Cc1nc(NC(=O)c2ccccc2)sc1-c1csc(Nc2ccc(F)cc2)n1 | . | -8 | i | 8 | 9 | . | . | .
Cc1ccccc1Nc1nc(N)nc(CSc2nc3ccccc3c(=O)n2CCCO)n1 | -24 | -10 | . | -6 | -13 | -10 | 5 | -1
Cc1ccc(Cl)cc1NC(=O)CCC(=O)NCc1ccco1 | 11 | 1 | i | -1 | -7 | -15 | -1 | 1
Cc1ccccc1Nc1nc(N)nc(COC(=O)c2cccc(S(=O)(=O)N(C)c3ccccc3)c2)n1 | 3 | . | i | 3 | -6 | . | 0 | -9
COc1ccc(Cl)cc1N1C(=O)c2cccnc2C1=O | 14 | . | i | 6 | 3 | -4 | 2 | 6
CC(=O)c1cccc(NC(=O)c2cc3nc(C)cc(C)n3n2)c1 | . | . | i | -6 | -3 | -5 | -2 | -2
Cc1cccc(N2CCN(C(=O)c3cc4cc(F)ccc4[nH]3)CC2)c1C | . | 43 | i | -6 | 4 | 7 | 4 | -3
COc1cc(/C=N/NC(=O)C2(O)c3ccccc3-c3ccccc32)ccc1O | . | -3 | i | 5 | -2 | -14 | -5 | 0
CCOC(=O)C1=C(C)OC(=Cc2ccc(OC)cc2)C1=O | -12 | . | . | . | . | -7 | -14 | 11
Cc1onc(-c2ccccc2)c1-c1csc(N/N=C/c2ccccc2Cl)n1 | -5 | 48 | i | 3 | 6 | . | -2 | -4
Cc1nc(NCCOc2ccccc2)sc1C(=O)Nc1ccccc1 | -12 | . | i | 6 | -15 | . | 3 | 0
CCCCCn1c(N)c(-c2nc3ccccc3o2)c2c([N+](=O)[O-])nn(CC)c(=O)c21 | 16 | 2 | i | -5 | 38 | . | 0 | -3

The order is random. About 2.9% of those tested had a hit in this group.
